Screening results: PubChem, several laboratories
PrP 5UTR inh – inhibition of PrP 5' UTR reporter expression; cell-based PrP 5' UTR mRNA reporter, plate reader; inhibition, % (concentration not given with the values); 340,000 compounds, 0.35% hits;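 active = every replicate at 50% or more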;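 note: 0 = median of the neutral control wells; tested in H4 reporter cells; numbers are from one replicate; inactives centre near -14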
Bead autofluor – flagged as autofluorescent in microsphere protease counterscreen | compound autofluorescence counterscreen, microsphere flow cytometry; active compounds read high | fluorescence intensity (test concentration not listed) | 360,000 compounds, 3.1% hits | AID 624483;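 active = at least 3 SD above the mean of all compounds, about 16000 in these data; inconclusive = too few beads counted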;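 note: 100 nL of 1 mM stock went into each well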
Starred values were filed as active, the others as inactive; ? = inconclusive. Not all compounds are listed; count on the stated rates, not on these rows.

Sequence of screens: PrP 5UTR inh, Bead autofluor
1) COc1cc(OC)cc(-c2c(-c3cccs3)c3cc(-c4ccn[nH]4)ccc3n2C)c1
  -7.6, 2765
2) C[C@@H](NS(=O)(=O)c1cc(Cl)ccc1F)[C@H](O)c1ccccc1
  -9.4, 3001
3) O=C(NC1CCCC1)c1cccc2c1C(=O)c1ccc(/C=C/c3ccccc3)cc1S2(=O)=O
  7.6, 2908
4) CC(C)C[C@H]1CNC(=S)N1CC1CCN(CCCCc2ccccc2)CC1
  -15.8, 3768
5) O=C(N/N=C/c1ccoc1)c1ccc([N+](=O)[O-])cc1
  -7.2, 5202
6) CCOC(=O)[C@H]1[C@H]2COc3ccc(OC)cc3[C@@H]2N2C(=O)CN(Cc3ccc(C)cc3)C(=O)[C@@]12C
  -21.0, 3785
7) COc1ccc(C(=O)CSc2nc(=O)n(Cc3cccnc3)c3c2CCC3)cc1
  -19.5, 12363
8) Brc1cc(Br)c2nc(-c3ccc(N4CCOCC4)cc3)ccc2c1
  -41.2, 19443*
9) N#C/C(=N\Nc1ccccc1[N+](=O)[O-])C(=N)N1CCCCC1
  -8.5, ?
10) C#CCOCCOCCOCCNc1nc(N2CCN(C(=O)[C@H](C)n3cc(CCC(=O)O)nn3)CC2)nc(N2CCN(C(=O)[C@H](CCCCN)n3cc(CCCC)nn3)CC2)n1
  -10.7, 3736
11) O=C(O)c1ccc(Oc2nc3ccccc3s2)cc1
  -88.3, 3767
12) COC(=O)C1=C(c2cccc(OCc3ccccc3)c2)C[C@@H]2CC[C@H]1N2C(=O)NCc1ccc(F)cc1
  -12.4, 3999
13) COc1ccc(C2=CC(=O)C[C@H](c3ccc(OC)c(OC)c3)C2)cc1
  -16.0, 3599
14) CN(C)c1ccc(/C=C2/C[N+](C)(C)C/C(=C/c3ccc(N(C)C)cc3)C2=O)cc1
  -23.6, 7292
15) CC(C)C[C@H]1CNC(=S)N1CC1CCN(CCC2CCCC2)CC1
  -9.6, 3125
16) CC(C)CC(CO)NS(=O)(=O)c1cccc(Cl)c1F (centres undefined)
  -0.8, 3614
17) O=C(O)c1c(Cl)cccc1Cl
  -10.3, 5174
18) CN(c1ccccc1)S(=O)(=O)c1ccccc1Br
  -5.0, 3044
19) COC(=O)C1=C(c2ccc(-c3ccccc3)c(F)c2)C[C@@H]2CC[C@H]1N2C(=O)NC(C)C
  -14.7, 3162
20) Cn1c(=S)c2[nH]c(SCc3cccnc3)nc2n(C)c1=O
  -6.5, 2781

Profiles, looked up by structure. Screens in order: PrP 5UTR inh | Bead autofluor
Listed for `O=C(NC1CCCC1)c1cccc2c1C(=O)c1ccc(/C=C/c3ccccc3)cc1S2(=O)=O` = 7.6 | 2908
Listed for `N#C/C(=N\Nc1ccccc1[N+](=O)[O-])C(=N)N1CCCCC1` = -8.5 | ?

Quoted at random: four records from the list.
Sequence of screens: PrP 5UTR inh, Bead autofluor
10) C#CCOCCOCCOCCNc1nc(N2CCN(C(=O)[C@H](C)n3cc(CCC(=O)O)nn3)CC2)nc(N2CCN(C(=O)[C@H](CCCCN)n3cc(CCCC)nn3)CC2)n1
  -10.7, 3736
2) C[C@@H](NS(=O)(=O)c1cc(Cl)ccc1F)[C@H](O)c1ccccc1
  -9.4, 3001
14) CN(C)c1ccc(/C=C2/C[N+](C)(C)C/C(=C/c3ccc(N(C)C)cc3)C2=O)cc1
  -23.6, 7292
16) CC(C)CC(CO)NS(=O)(=O)c1cccc(Cl)c1F (centres undefined)
  -0.8, 3614

Continuation.
Sequence of screens: PrP 5UTR inh, Bead autofluor
21) CCOC(=O)[C@H]1[C@H]2COc3ccc(OC)cc3[C@@H]2N2C(=O)CN(Cc3ccc(F)cc3)C(=O)[C@@]12C
  -5.9, 3394
22) CCOC(=O)[C@H]1[C@H]2COc3ccccc3[C@@H]2N2C(=O)CN(Cc3ccccc3)C(=O)[C@@]12C
  -16.7, 5572
23) O=[N+]([O-])c1cccc(COc2ccc(CN3CCOCC3)cc2)c1
  -111.5, 4222
24) C[C@@H]1CCCCCCCCC(=O)OCCN[C@H](C)CCCCCCCCC(=O)OCCN[C@H](C)CCCCCCCCC(=O)OCCN1
  -22.1, 3276
25) CN(C)CCC(=O)N1C/C(=C/c2ccccc2)C(=O)/C(=C\c2ccccc2)C1
  21.9, 4204
26) CCOC(=O)C(=O)NC1CC=CCC1c1ccc2c(c1)OCO2 (centres undefined)
  -14.4, 3294
27) Cc1cn([C@H]2C[C@H](O)[C@@H](CCC(=O)NCCc3cnc[nH]3)O2)c(=O)[nH]c1=O
  35.6, 3664
28) CC(C)C[C@@H](CO)N(Cc1ccccc1)S(=O)(=O)N(Cc1ccccc1)[C@H](CO)CC(C)C
  -17.7, 4046
29) CO/N=C(/CS(=O)c1ccc(Br)cc1)c1ccc(OC)cc1 (centres undefined)
  -1.8, 2237
30) COc1cccc([C@@H]2CC=C(C(=O)O)[C@H](c3ccccc3F)N2S(=O)(=O)c2ccc(C)cc2)c1
  -3.9, 3909
31) Cc1ccc(-c2nnc(-c3ccc4ccccc4c3)o2)cc1
  -59.0, 4272
32) CC(=O)OC1[C@H](Oc2c(O)c(C)c3c4c2[C@@H](C)CC[C@@H]4[C@@H](C)C[C@@H]3C=C(C)C)OC[C@@H](O)[C@@H]1O (some centres undefined)
  -21.3, 3918
33) CC(=O)OC1CC2(O)C3CCC4CC(O)CCC4(C)C3CCC2(C)C1C1=CC(=O)OC1 (centres undefined)
  86.2*, 3326
34) CCOc1cc2c(cc1O)CCC1C2CCC2(C)C(O)CCC12 (centres undefined)
  29.7, 3031
35) COC(=O)C1=C(c2ccc(OC)c(OC)c2)C[C@@H]2CC[C@H]1N2C(=O)NC1Cc2ccccc2C1
  -29.5, 3862
36) Nc1ccc2c(c1)-c1ccc(F)cc1C2=O
  81.0*, 4193
37) CCOc1ccc(/C(CCC(=O)O)=N/NC(=O)c2cccc(S(=O)(=O)Nc3ccccc3OC)c2)cc1
  5.9, 3781
38) CCOc1cc(-c2sc(Nc3cc(C)ccc3OC)n[n+]2-c2ccccc2)ccc1OC
  -2.4, 4185
39) C#CCOCCOCCOCCNc1nc(N2CCN(C(=O)[C@H](CO)n3cc([C@@H](N)C(C)C)nn3)CC2)nc(N2CCN(C(=O)[C@H](CCCCN)n3cc([C@@H](N)[C@H](C)CC)nn3)CC2)n1
  -13.7, 3639
40) CC(C)=CCC/C(C)=C/CC/C(C)=C/COc1ccc2ccc(=O)oc2c1
  4.4, 3440
41) CC(C)C[C@@H](CN)NC(=O)c1nc[nH]c1C(=O)N[C@@H](C)C(=O)CNC[C@H](CC(C)C)NC(=O)c1nc[nH]c1C(=O)N[C@@H](CC(=O)O)C(=O)O
  0.5, 3830
42) COc1ccc(Cl)c(CNC[C@H]2O[C@@H](n3cnc(C(N)=O)n3)[C@H](O)[C@@H]2O)c1
  -0.5, 3786
43) C[C@@H]1O[C@@H](O[C@H]2[C@H](O)[C@@H](O)[C@H](Oc3c(-c4ccc(O)c(O)c4)oc4cc(O)cc(O)c4c3=O)O[C@@H]2CO)[C@H](O)[C@H](O)[C@H]1O
  -20.2, 3533
44) Cc1c2cc[n+](CCN3CCCCC3)cc2c(C)c2c1[nH]c1ccc(O)cc12
  -43.4, 2619
45) CCOC(=O)[C@@H]1[C@H]2COc3ccc(Br)cc3[C@@H]2N2C(=O)N(c3ccc(F)cc3)C(=O)[C@@]12C
  -3.6, 3973
46) CNC[C@@H]1Oc2c(NC(=O)Nc3ccccc3)cccc2C(=O)N([C@@H](C)CO)C[C@H]1C
  -13.0, 3102
47) CCOC(=O)c1c(CN2CCNCC2)nc2ccc(Cl)cc2c1-c1ccccc1
  22.4, 3803
48) CN1CCC2CC1c1cc(-c3ccc(C(F)(F)F)cc3)ccc12 (centres undefined)
  -16.2, 3969
49) CC(C)(C)CC(C)(C)N=C1Nc2cc(Cl)c(Cl)cc2NC12C[C@H]1CCC(=O)N3CC[C@@H](C2)[C@@H]13 (some centres undefined)
  -8.3, 3622
50) CC(=O)Nc1ccc(NC(=O)COC(=O)c2ccc(S(=O)(=O)N(C)c3ccccc3)cc2)cc1
  2.1, 4057
51) O=c1[nH]cnc2c1ccn2C1OC(CO)C(O)C1O (centres undefined)
  -9.8, 5434
52) Cc1cc(C)nc(NNS(=O)(=O)c2ccc(Cl)cc2)n1
  -11.5, 3678
53) COC(C[C@H]1O[C@@H]1[C@H](O)COCc1ccccc1)OC
  -10.4, 2912
54) COc1ccc(Cl)cc1C=CC=Nc1ccc(S(N)(=O)=O)cc1
  -23.1, 3017
55) Nc1ccc(Cl)c(Cl)c1
  8.5, 4310
56) CNC(=O)c1cc(Oc2ccc(NC(=O)Nc3ccc(Cl)c(C(F)(F)F)c3)cc2)ccn1
  30.6, 4268
57) C=CC1=C(C(=O)O)N2C(=O)[C@@H](NC(=O)/C(=N\OCC(=O)O)c3csc(N)n3)[C@H]2SC1
  -7.4, 4358
58) C[C@H](CO)N1C[C@H](C)[C@@H](CN(C)Cc2ccc(C(=O)O)cc2)Oc2c(NC(=O)Cc3ccccc3)cccc2C1=O
  -33.3, 3776
59) Cc1cccc(NC(=O)c2cccc([N+](=O)[O-])c2O)c1C
  -118.5, 3123
60) COc1cc(NC(=O)SC2=NCCS2)cc(OC)c1
  -12.0, 3225

The listing continues.
no.	Molecule	PrP 5UTR inh	Bead autofluor
61	COC1=CC(=O)C(C2CC(=O)c3c(O)cc(O)cc3O2)=CC1=O (centres undefined)	-29.9	3234
62	C=CC[C@H](CC(=O)N(CCO)Cc1ccccc1)C(=O)N[C@H](COC(=O)[C@H](CC=C)CC(=O)OC(C)(C)C)Cc1ccccc1	-20.0	3672
63	CC(/C=C/c1ccccc1)=N/NC(=O)c1cc([N+](=O)[O-])cc([N+](=O)[O-])c1	14.5	1909
64	COc1cccc(-c2sc3ccc(OC)cc3c2C#CCCO)c1	-11.2	3925
65	O=[N+]([O-])c1ccc(CS(=O)c2ccccc2)cc1 (centres undefined)	-23.4	3471
66	COC(=O)C1=C(c2ccc(F)cc2F)C[C@@H]2CC[C@H]1N2C(=O)NCc1ccc2c(c1)OCO2	-17.6	3888
67	CC1=CC(=O)Nc2ccccc2S1	-9.2	3140
68	C=CC[C@@H](CC(=O)NCCO)C(=O)NC[C@@H](OC(=O)[C@H](CC=C)CC(=O)OC(C)(C)C)c1ccccc1	-6.7	2904
69	C/C(=N\NC(=O)c1cccc(S(=O)(=O)N2CCCCC2)c1)c1ccc(C)o1	-6.6	4096
70	O=C(CCC(=O)c1cccs1)OCC(=O)c1ccccc1	-23.0	3774
71	C[C@@H](NC(=O)c1nc[nH]c1C(=O)NCCCCCNC(=O)OC(C)(C)C)c1ccccc1	-19.6	3551
72	O=C1N[C@H](Cc2ccccc2)COC(=O)[C@H](Cc2ccc(F)cc2)CC/C=C/C[C@H]1CC(=O)N(CCO)Cc1ccccc1	3.1	3483
73	COc1cccc(/C=C/C(=O)OCC(=O)NC(=O)NC2CCCC2)c1	-7.1	3594
74	Cc1ccc(-c2cc(C(=O)N/N=C/c3ccoc3)c3ccccc3n2)cc1	0.9	6467
75	O=C(C[C@H]1C/C=C\CC[C@H](Cc2ccc(F)cc2)C(=O)OC[C@H]2CCCN2C1=O)N[C@@H](CO)Cc1ccccc1	1.6	4359
76	C[C@@H]1O[C@@H](O[C@@H]2C=C3CC[C@@H]4C(CC[C@]5(C)[C@@H](c6ccc(=O)oc6)CC[C@]45O)[C@@]3(C)CC2)[C@H](O)[C@H](O)[C@H]1O (some centres undefined)	94.0*	3972
77	COC(=O)c1cc2c(n1S(=O)(=O)c1ccc(C)cc1)C(=O)C(=O)c1[nH]cc(C(=O)OCc3ccccc3)c1-2	53.0	3779
78	COc1ccc(C(=O)Nc2ccccc2-c2nnn(CC(N)=O)n2)cc1	5.8	4459
79	CC1O[C@@H](OC2C(O)C(O)C(CO)O[C@H]2OC2C[C@]3(C)C(CC(O)C4[C@@H]([C@]5(C)CC[C@@H](C(C)(C)O)O5)CC[C@]43C)[C@@]3(C)CCC(O)C(C)(C)C23)C(O)C(O)C1O (some centres undefined)	-6.3	3906
80	Oc1ccccc1CC=NC1CCCCC1	-10.9	7025
81	CN=c1scc(C)n1/N=C/c1ccc(O)cc1	-46.0	2745
82	CCCCCC1C(=O)N2C=C(c3ccccc3)c3ccccc3N2C1=O (centres undefined)	-18.8	4072
83	C[C@@H]1COC(=O)[C@H](Cc2ccc(F)cc2)C/C=C\C[C@@H](CC(=O)NCCO)C(=O)N1	-21.4	3919
84	COc1ccccc1-c1cccc([C@@H]2C[C@H]3[C@H](CON3C)CN2C(=O)CCc2ccccc2)c1	-17.3	3377
85	Cc1noc(NS(=O)(=O)c2ccc(NC(=O)c3cc(S(=O)(=O)N(C)c4ccccc4)ccc3Cl)cc2)c1C	-2.7	3837
86	Nc1nc(=O)n(C2CC(O)C(CO)O2)cc1F (centres undefined)	-9.3	3647
87	N#C/C(=C\c1ccc(O)c(O)c1)C(=O)NCCc1ccccc1	-25.9	4288
88	Cc1ccccc1Oc1ccc2c(c1)[C@@H]1C[C@H]3[C@@H](C(=O)N1CC2)[C@H](C)ON3C	-14.7	3968
89	CC(=O)Nc1ccc(S(=O)(=O)N2Cc3cnnn3-c3ccccc3C2C#N)cc1 (centres undefined)	-6.1	3236
90	O=c1[nH]c(-c2ccccc2)ncc1OCc1ccccc1	-29.5	4233
91	C#CCOCCOCCOCCNc1nc(N2CCN(C(=O)[C@H]([C@@H](C)CC)n3cc(CCCN=C(N)N)nn3)CC2)nc(N2CCN(C(=O)[C@H]([C@@H](C)CC)n3cc(CCC(=O)O)nn3)CC2)n1	-14.5	3566
92	COc1cc(C2CC(=O)Oc3cc(C)cc(C)c32)cc(OC)c1OC (centres undefined)	-7.0	2937
93	CC(C)NC(=O)Nc1ccc2c(c1)C(=O)N([C@H](C)CO)C[C@H](C)[C@@H](CN(C)S(=O)(=O)c1cccs1)O2	-10.6	4025
94	CCOC(=O)c1c(SCCN2CCCCC2)n(-c2ccccc2)c(=S)n(-c2ccccc2)c1=O	1.0	3693
